HSD17B inhib: blocks hydroxysteroid 17-beta dehydrogenase activity. Q99714. recombinant HSD17B10, NADH fluorescence kinetic; many of its hits are not listed in these tables. Potency, µM (top dose mostly 57.1 µM), for the others: top-dose activity change, negative = inhibition, most hits filed as inhibitors. 7.6% of 75,000 active. AID 893; active = well fitted inhibition curve with a large enough effect; inconclusive = small, poorly fitted or top-dose-only effect; inactive = no such curve, though single readings can be large or run the other way;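 note: the protocol describes HADH2 (HSD17B10) and not the HSD17B4 of the title; nearly all actives have a fitted effect of over 70% in size; most hits overshoot -100% by far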
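His-tagged E. coli-expressed HADH2 at 20 nM in 100 mM Tris-HCl pH 9.0 with 0.01 % Tween-20, preincubated 15 min with compound at room temperature. Reaction with 1 mM NAD+ and 90 uM beta-hydroxybutyryl coenzyme A; NADH fluorescence (360/450 nm) read kinetically over 4 min, last minus first point.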
The depositor's hits bear a star; ? = inconclusive; [ ] = another dose, or the depositor's remark. % is set by controls: 0 for no effect and ±100 for the full control effect; potency is the fitted concentration of half-maximal effect. Not all compounds are listed, so the mix of outcomes need not match the whole.

SMILES	HSD17B inhib
O=C(CCc1nc2ccccc2c(=O)[nH]1)N1CCN(C/C=C/c2ccccc2)CC1	-4%
O=C(NCC1CCCO1)c1csc2c1CCCC2 (stereo unspecified)	-2%
COc1ccc(-c2nc3cnc(OC)nc3n(C[C@H]3CCCO3)c2=O)cc1	?
Cc1nc(Nc2ccncc2)c2oc3ccccc3c2n1	32µM*
Nc1nnc(CCN2C(=O)CSC2=O)s1	2%
COc1ccc(C(=O)c2oc3ccccc3c2N)cc1	-23%
COc1ncc2nc(-c3ccc(Cl)cc3)c(=O)n(Cc3cccs3)c2n1	25µM*
Cc1ccc(NC(=O)CS(=O)CC(=O)NCC2OCCc3ccccc32)c(C)c1 (stereo unspecified)	-10%
O=C1c2ccccc2-c2cc([N+](=O)[O-])c([N+](=O)[O-])cc21	?
CCN(CC)CCN1C(=O)C(=O)/C(=C(/O)c2cccc(OC)c2)C1c1ccccn1 (stereo unspecified)	-2%
O=C(Nc1ccc(C(=O)Oc2ccccc2)c(O)c1)c1ccco1	?
CCc1nnc(NC(=O)c2cc3c(s2)CCCCC3)s1	0%
COc1cccc(CC(=O)Nn2c(C)nc3ccccc3c2=O)c1	6%
Cc1cc(C)cc(N(CC(=O)NCC2CCCO2)C(=O)CN2C(=O)COc3ccccc32)c1 (stereo unspecified)	0%
Cc1onc(-c2ccccc2Cl)c1C(=O)Nc1cccnc1	7%
Cc1ccc(NC(=O)N2CCC(C(=O)NCCC3=CCCCC3)CC2)cc1	2%
O=C(CSc1nnnn1-c1ccccc1)CSc1nnnn1-c1ccccc1	-9%
COc1ccccc1CNc1nc(-c2cccc(NS(C)(=O)=O)c2)nc2ccccc12	5%
CCCCN1C(=O)C(O)(CC(=O)c2ccccc2OC)c2ccccc21 (stereo unspecified)	3%
Cc1ccccc1NC(=O)CN1C(=O)COc2ccc(Cl)cc21	6%
Nc1cc(N)cc(-c2nc3ccccc3[nH]2)c1	-2%
O=C(CN1CCC(n2nnc3cc(F)ccc32)CC1)NCCc1nc2ccccc2[nH]1	7%
Cc1oc2c(c1C(=O)NCc1ccccc1)CCCC2	6%
CCOC(=O)C1CCCN(C(=O)Cn2cccc2C(=O)c2ccccc2)C1 (stereo unspecified)	-5%
COc1cc(NS(=O)(=O)c2ccc3c(c2)oc(=O)n3C)cc(OC)c1OC	-2%

Some of the entries so far, with bars between the fields.
SMILES | HSD17B inhib
Cc1ccccc1NC(=O)CN1C(=O)COc2ccc(Cl)cc21 | 6%
COc1ccccc1CNc1nc(-c2cccc(NS(C)(=O)=O)c2)nc2ccccc12 | 5%
Nc1nnc(CCN2C(=O)CSC2=O)s1 | 2%
CCOC(=O)C1CCCN(C(=O)Cn2cccc2C(=O)c2ccccc2)C1 (stereo unspecified) | -5%

Four compounds from above, ordered by count of non-hydrogen atoms, high to low.
SMILES	HSD17B inhib
O=C(CN1CCC(n2nnc3cc(F)ccc32)CC1)NCCc1nc2ccccc2[nH]1	7%
COc1cccc(CC(=O)Nn2c(C)nc3ccccc3c2=O)c1	6%
Cc1ccccc1NC(=O)CN1C(=O)COc2ccc(Cl)cc21	6%
Nc1cc(N)cc(-c2nc3ccccc3[nH]2)c1	-2%

Other entries.
SMILES	HSD17B inhib
C/C=C/C=C/C=O	-4%
CCN(CC)c1nc(N(CC)CC)[nH]c(=O)n1	2%
O=C(CCCOc1ccc(Cl)cc1Cl)NCCCO	-12%
C#CCCCO/N=C1/C[C@@H](O)[C@@H](O)[C@@H]2[C@H]3C(=O)N(c4ccc(F)cc4F)C(=O)[C@@H]3CC[C@@H]12	2%[11.4 µM]
COC(=O)c1ccccc1NC(=O)c1cc(OC)cc(OC)c1	?
O=C(Cn1ncc2c(=O)oc3ccccc3c21)N1CCN(C(=O)c2ccco2)CC1	1%
CCCC(C)n1[nH]c(=O)c2c(C)cc(C)nc21 (stereo unspecified)	5%
CC(=O)NCCn1c(SCc2cc(=O)n3cc(Cl)ccc3n2)nc2ccccc2c1=O	-2%
CS(=O)(=O)N1CCN(C(=O)c2cc3ccccc3oc2=O)CC1	-9%
CCN(CC(=O)NC)S(=O)(=O)c1ccc(Br)cc1	12%
COc1cc(CC(=O)Nc2ccc(S(=O)(=O)N(C)C)cc2)cc(OC)c1OC	4%
O=C(c1cnccn1)N1CCC2(CCCN(c3ccncc3)C2)CC1	2%
COc1ccc(-n2c(C)nc3cc(C(=O)N4CCOCC4)ccc32)cc1	10%
Cc1cccc2cc(CN(CCCO)C(=O)Nc3ccccc3Cl)c(=O)[nH]c12	?
O=C1NC(Nc2nccs2)(C(F)(F)F)C(=O)N1CCc1ccccc1 (stereo unspecified)	-4%
Cc1c(C(=O)NCc2ccco2)oc2ccc(S(=O)(=O)N3CCC4(CC3)OCCO4)cc12	-18%
COc1cccc(CNC(=O)CCn2c(=O)oc3ccccc32)c1	-2%
O=C(NC1CCCCC1)N1CCCc2ccccc21	6%
CC(C)COc1ccc(-c2nnc(-c3ccncc3)o2)cc1	16µM*
COc1ccc(-n2nnnc2SCC(=O)NCc2ccco2)cc1OC	-3%
Cc1cc(NC(=O)CSc2nccn2-c2ccc(F)cc2)no1	-2%
Cc1ccccc1CSCC(=O)NC(=O)NCc1ccco1	-27%
O=C(Nc1ccon1)c1cc2c(s1)CCCCCC2	?
Cc1ccc(S(=O)(=O)N2CCN(Cc3ccccc3C(F)(F)F)CC2)cc1	0%
CCn1c(SCC(=O)c2ccc(F)cc2)nnc1-c1ccoc1C	-15%

Quoted at random: 2 entries already listed
SMILES	HSD17B inhib
O=C(Nc1ccon1)c1cc2c(s1)CCCCCC2	?
O=C1NC(Nc2nccs2)(C(F)(F)F)C(=O)N1CCc1ccccc1 (stereo unspecified)	-4%

Going on with the list.
SMILES	HSD17B inhib
COc1ccc(N(CC(=O)Nc2cc(OC)ccc2OC)S(=O)(=O)c2c(C)nn(C)c2C)cc1	-2%
CCCCN(CCCC)Cc1ccc(N)cc1	-9%
N[C@@H](Cc1c[nH]c2ccccc12)C(=O)O	2%
Cn1c(SCCN2CCCCC2)nnc1-c1ccccc1Br	5%
Cc1nc2ccc(N)cc2s1	7%
O=C(Nc1ncc(C(F)(F)F)cc1Cl)C1COc2ccccc2O1 (stereo unspecified)	-2%
O=C(c1ccccc1)c1ccc(C(=O)N2CCN(c3ccc(F)cc3)CC2)o1	-5%
CC(=O)c1cccc(NC(=O)CC2SC(N3CCCCC3)=NC2=O)c1 (stereo unspecified)	-5%
Cc1ccc2oc(-c3ccco3)nc2c1	25µM*
CCCn1c(SCC(=O)Nc2sc(C)c(C)c2C(=O)OC)nc2c1c(=O)n(C)c(=O)n2C	0%
Cn1c(=O)c2c(nc(N3CCOCC3)n2Cc2c(F)cccc2Cl)n(C)c1=O	11%
Cn1c(=O)[nH]c(=O)c2c1ncn2CCN1CCOCC1	12%
COc1ccc(CN/C=C2\CCCCC2=O)cc1	1%
O=C(CCS(=O)(=O)Cc1ccccc1)N1CCN(Cc2ccccc2)CC1	2%
CC12CCC(C(=O)NCc3ccccn3)(OC1=O)C2(C)C (stereo unspecified)	10%
Cc1ccccc1-c1nccc(NCc2cccs2)n1	2%
CCOC(=O)CSc1nnc(CNC(=O)c2ccc(S(=O)(=O)N3CCCCC3)cc2)n1C	6%
O=C1CCCN1CCCNc1ncnc2c1[nH]c1ccccc12	32µM*
CCOC(=O)C1CCN(C(=O)c2oc3ccc(S(=O)(=O)N4CC(C)CC(C)C4)cc3c2C)CC1 (stereo unspecified)	0%
Cc1cnc(NC(=O)CCCSc2nc3ccccc3s2)s1	-11%
Cc1ccc(S(=O)(=O)N[C@H](C(=O)O)C(C)C)cc1	7%[11.4 µM]
CCOC(=O)CSc1nc2ccccc2c(=O)[nH]1	8%
O=C(c1cc(C(F)(F)F)cc(C(F)(F)F)c1)N1CCC2(CC1)CCN(c1ncccn1)CC2	2%
Nc1ccc2c(c1)ncn2CCCn1cnc2cc(N)ccc21	13%
O=C(O)CCSc1nc2ccccc2c(=O)[nH]1	-3%
(list continues)
SMILES	HSD17B inhib
CC1c2[nH]c3ccccc3c2CCN1C(=O)Nc1ccccc1 (stereo unspecified)	-6%
CC(CN(C)C)CN1c2ccccc2Sc2ccccc21 (stereo unspecified)	-1%
O=C(CSc1nnc(COc2ccc(F)cc2)o1)N1c2ccccc2CCc2ccccc21	-6%
COc1ccc(NC(C)=O)cc1NC(=O)CN1CCN(c2ccccn2)CC1	8%
COC(=O)[C@@H]1C[C@@]2(O)[C@@H](O)[C@@H](O)[C@@H](O)C[C@H]2N1CC(c1ccccc1)c1ccccc1	-8%
CC(C)CCNC(=O)C(c1ccco1)N(Cc1cccs1)C(=O)Cn1nnc2ccccc21 (stereo unspecified)	4%
CCn1c(CNC(=O)C(C)(C)C)nc2ccccc21	10%
c1coc(-c2nc(-c3ccncc3)no2)c1	9%
Brc1cccc(-c2nnc3sc(CN4CCCCC4)cn23)c1	7%
CCCCC(C(=O)NCCC(C)C)N(CCCN1CCOCC1)C(=O)c1snc(C(N)=O)c1N (stereo unspecified)	?
CN(CP(=O)(O)CCc1ccccc1)S(C)(=O)=O	4%
NC(=O)c1ccccc1OCC(=O)NS(=O)(=O)c1ccccc1	6%
COc1cc(C(=O)OC2CC[C@]3(C)C4CCC5[C@]6(O)CC(O)[C@]7(O)C(CN8CC(C)CCC8[C@]7(C)O)[C@]6(O)C[C@@]53O[C@]24O)cc(OC)c1OC (stereo partly specified)	1%
NC(=O)c1ncn([C@@H]2O[C@@H](CO)[C@@H](O)[C@H]2O)c1O	-12%
COc1ccc(S(=O)(=O)NCCSc2ccccc2)cc1OC	3%
C(=N\n1cncn1)/c1ccc(N2CCOCC2)cc1	4µM*
CCOC(=O)Nc1c(O)ccc2oc(C)c(-c3ccccc3)c12	-3%
Cc1ccc(-c2noc(C3CCN(C(=O)Nc4ccc(C#N)cc4)CC3)n2)o1	-4%
CCC(Sc1nc(C)cc(=O)[nH]1)C(=O)Nc1nc2c(s1)CCCC2 (stereo unspecified)	-2%
CS[C@@H](CC(=O)O)C(=O)O	14%[11.4 µM]
O=c1cnc2cnc(N3CCOCC3)nc2n1Cc1ccc(F)cc1	?
C=CCn1c(C(C)NC(=O)COC)nc2ccccc21 (stereo unspecified)	4%
Fc1ccc(C(c2nnnn2Cc2ccco2)N2CCN(C3CCCCC3)CC2)cc1 (stereo unspecified)	-2%
COCCCN(C(=O)Nc1ccccc1)C(C)c1ccncc1 (stereo unspecified)	6%
O=C(O)c1[nH]c2ccccc2c1NS(=O)(=O)Cc1ccccc1	32µM*
Additional structures follow.
SMILES	HSD17B inhib
O=C(CSc1nc2ncccc2[nH]1)Nc1ccc2c(c1)OCCO2	-15%
CCOc1cc(N2C(=O)CC3CS(=O)(=O)CC32)c(OCC)cc1NC(=O)c1ccccc1 (stereo unspecified)	-4%
O=C(O)C1OC(O)C(O)C(O)C1O (stereo unspecified)	-11%
Cc1ccc(-c2[nH]nc3c2C(c2ccccc2OC(=O)N2CCOCC2)C(C#N)=C(N)O3)cc1 (stereo unspecified)	-12%
CC(=O)c1ccc(NC(=O)CSc2nnc(Cc3cccn3C)n2-c2ccc(F)cc2)cc1	3%
C(=N\n1cnnc1)/c1ccccc1OCCOc1ccccc1	2%
CCOC(=O)C(C)(C)Sc1ncnc2nc[nH]c12	6%
CN1CCN(c2ccc(NC(=O)c3cccc(OCc4ccccc4)c3)cc2)CC1	-2%
CC(C)CCNC(=O)CN(Cc1ccc2c(c1)OCO2)C(=O)Cn1nnc(-c2cccs2)n1	15%
c1ccc2c(c1)CCN(c1nc3cc4c(cc3s1)OCO4)C2	?
Cc1cc(C)n2nc(C(=O)Oc3ccc4c(c3)OCO4)nc2n1	5%
O=C(CSc1ccccc1C(=O)O)NCc1ccco1	1%
C/C(Cl)=C\Cn1c(N2CCCC2)nc2c1c(=O)[nH]c(=O)n2C	5%
CNC(=O)c1ccccc1NC(=O)c1c(O)c2c([nH]c1=O)CCCC2	3%
O=C(O)c1oc2ccccc2c1CN1CCN(c2ccccc2)CC1	3%
CCOC(=O)C1CCCN(c2ncnc3c2cnn3-c2cccc(C)c2)C1 (stereo unspecified)	-14%
O=C(CSc1nc(C2CCCCC2)n(-c2ccccc2)n1)NCCN1C(=O)CSC1=O	10%
CCOc1ccccc1-n1c(SCC(N)=O)nnc1-c1ccco1	-6%
COc1ccc(-n2c(Cn3c(=O)sc4ccccc43)nnc2SCC(N)=O)cc1	4%
COc1ccc(CCn2nnnc2C(c2ccc(C)cc2)N2CCN(C)CC2)cc1OC (stereo unspecified)	0%
Cc1c(C(=O)Nc2ccc(-n3cnnn3)cc2)oc2ccccc12	?
CCOc1cc(C2C3=C(CCCC3=O)N(C)C3=C2C(=O)CCC3)cc(Cl)c1O	-5%
CS(=O)(=O)Nc1ccccc1Oc1ccccc1	1%
COc1ccc([C@@H]2CC(=O)c3c(O)cc(O[C@H]4O[C@@H](CO[C@H]5O[C@@H](C)[C@@H](O)[C@@H](O)[C@@H]5O)[C@@H](O)[C@@H](O)[C@@H]4O)cc3O2)cc1O	0%[25.6 µM]
CN(C)Cc1ccccc1-c1nccc(Nc2ccc(F)cc2)n1	6%

Reprinted from above (4 entries):
SMILES	HSD17B inhib
O=C(CSc1nc2ncccc2[nH]1)Nc1ccc2c(c1)OCCO2	-15%
CCOc1cc(N2C(=O)CC3CS(=O)(=O)CC32)c(OCC)cc1NC(=O)c1ccccc1 (stereo unspecified)	-4%
O=C(O)C1OC(O)C(O)C(O)C1O (stereo unspecified)	-11%
Cc1ccc(-c2[nH]nc3c2C(c2ccccc2OC(=O)N2CCOCC2)C(C#N)=C(N)O3)cc1 (stereo unspecified)	-12%

Assay outcomes as filed in PubChem BioAssay.
